Vaccinia Venus – vaccinia inhibition (Venus reporter). Vaccinia virus Venus reporter expression, fluorescence. Potency, µM (highest dose often 36.5 µM), without a hit: at the highest dose activity change, negative = inhibition, actives largely listed as inhibitors. 330,000 tested, 0.46% active; active means well fitted inhibition curve with a large enough effect; inconclusive means small, poorly fitted or top-dose-only effect; inactive means no such curve, though single readings can be large or run the other way; tested in A549 cells; also: nearly all actives have a fitted effect of over 30% in size; inactives centre near -10
VACV mCherry inh – inhibitors of vaccinia virus infection (mCherry reporter signal); 310,000 tested, 0.63% active; Potency, µM (doses to about 36.5 µM), without a hit: at the top dose activity change, negative = inhibition, usual class: inhibitors; Vaccinia virus mCherry reporter infection, fluorescence; about a quarter of the inactives have no number; active = well fitted inhibition curve with a large enough effect; inconclusive = small, poorly fitted or top-dose-only effect; inactive = no such curve, though single readings can be large or run the other way; tested in A549 cells; also: nearly all actives have a fitted effect of over 35% in size; inactives centre near -10
Starred values were filed as active, the others as inactive; i = inactive; ? = inconclusive; . = no result given; & = joins results of further samples; [ ] = remark or other dose. % is scaled to controls: 0 for no effect and ±100 for the full control effect; potency is read from the fitted curve at half-maximal effect. Not a hit list, and some 0.82% of all compounds hit somewhere here.

1. COc1ccc(C(=S)N2CCOCC2)cc1OC(=O)c1ccc(C)cc1
2. CN1CCc2c(sc(/N=C/c3cc(Cl)ccc3O)c2C#N)C1
3. COc1ccc(C2C(C(N)=O)=C(C)Nc3nc(-c4ccccc4Cl)nn32)cc1 (stereo not drawn)
4. Cc1cc(C(=O)NCC(=O)OC(C(=O)Nc2cc(C(F)(F)F)ccc2Cl)c2ccccc2)ccc1[N+](=O)[O-] (stereo not drawn)
5. O=C(/C=C/c1ccccc1)Nc1cc(-c2nc3cc(Cl)ccc3o2)ccc1Cl
6. COc1cc(CCC(=O)NCc2ccc3c(c2)CCN3C(=O)c2ccccc2)cc(OC)c1OC
7. COc1cc(Cl)cc(C#N)c1OCC(=O)O
8. COc1ccccc1CNc1ccc(-c2nc(-c3ccccc3C)no2)cc1[N+](=O)[O-]
compound no. | 1 | 2 | 3 | 4 | 5 | 6 | 7 | 8
Vaccinia Venus | -9% | -3% | -8% | -16% | -3% | -11% | -4% | -2%
VACV mCherry inh | ? | -6% | -1% | -29% | -5% | -7% | -10% | -10%

9. CCCC(=O)OCC(=O)Nc1ccc2c(c1)OCO2
10. Cc1ccc(-c2nc3c4ccccc4n(Cc4cccc(Cl)c4)c(=O)n3n2)cc1
11. Cc1ccccc1C1(CC(=O)N2CCCCC2C)CC(=O)N(Cc2cccnc2)C1=O (stereo not drawn)
12. Cc1cc(C)n(-c2cc(N3CCN(S(=O)(=O)c4ccc5ccccc5c4)CC3)ccc2[N+](=O)[O-])n1
13. Nn1c(SCC(=O)NCc2ccccc2)nnc1C1CC1
14. Cc1nn2c(NCC(C)C)c3c(nc2c1-c1ccccc1)CCC3
15. O=C(O)c1ccc(S(=O)(=O)NN=Cc2c[nH]c3ccccc23)cc1
16. CCCCNC(=O)CN(c1ccc(Cl)c(Cl)c1)S(C)(=O)=O
compound no. | 9 | 10 | 11 | 12 | 13 | 14 | 15 | 16
Vaccinia Venus | -1% | -15% | 3% | ? | -2% | -13% | -9% | -9%
VACV mCherry inh | i | -21% | -10% | . | i | -10% | -20% | i

Exported with values under each structure: part of the list above
Values run as follows: Vaccinia Venus	VACV mCherry inh
(2) CN1CCc2c(sc(/N=C/c3cc(Cl)ccc3O)c2C#N)C1
  -3%	-6%
(3) COc1ccc(C2C(C(N)=O)=C(C)Nc3nc(-c4ccccc4Cl)nn32)cc1 (stereo not drawn)
  -8%	-1%
(4) Cc1cc(C(=O)NCC(=O)OC(C(=O)Nc2cc(C(F)(F)F)ccc2Cl)c2ccccc2)ccc1[N+](=O)[O-] (stereo not drawn)
  -16%	-29%
(5) O=C(/C=C/c1ccccc1)Nc1cc(-c2nc3cc(Cl)ccc3o2)ccc1Cl
  -3%	-5%
(6) COc1cc(CCC(=O)NCc2ccc3c(c2)CCN3C(=O)c2ccccc2)cc(OC)c1OC
  -11%	-7%
(7) COc1cc(Cl)cc(C#N)c1OCC(=O)O
  -4%	-10%
(8) COc1ccccc1CNc1ccc(-c2nc(-c3ccccc3C)no2)cc1[N+](=O)[O-]
  -2%	-10%
(9) CCCC(=O)OCC(=O)Nc1ccc2c(c1)OCO2
  -1%	i
(10) Cc1ccc(-c2nc3c4ccccc4n(Cc4cccc(Cl)c4)c(=O)n3n2)cc1
  -15%	-21%
(11) Cc1ccccc1C1(CC(=O)N2CCCCC2C)CC(=O)N(Cc2cccnc2)C1=O (stereo not drawn)
  3%	-10%
(12) Cc1cc(C)n(-c2cc(N3CCN(S(=O)(=O)c4ccc5ccccc5c4)CC3)ccc2[N+](=O)[O-])n1
  ?	.
(13) Nn1c(SCC(=O)NCc2ccccc2)nnc1C1CC1
  -2%	i

(list continues)
17. O=C1C(=O)C(Cl)=C(Cl)C(Cl)=C1Cl
18. CCCCOP(=O)(CN1CCOCC1)OCCCC
19. OC(c1cc(C(F)(F)F)nc2c(Cl)cc(Cl)cc12)C1CCCCN1 (stereo not drawn)
20. Cc1c(NC(=O)CSc2nnc(-c3ccncc3)o2)c(=O)n(-c2ccccc2)n1C
21. CC(C)COC(=O)N1CCCCC1c1cc(C(=O)NCc2cccnc2)no1 (stereo not drawn)
22. C=CCN1C(C(=O)c2ccccc2)=C(OC(=O)COc2ccccc2)c2ccccc2S1(=O)=O
23. O=C(O)CS(=O)(=O)CC(=O)NCc1cccc(C(F)(F)F)c1
24. O=C(Nc1ccc(F)c(Cl)c1)c1cc(C2CCCCN2C(=O)c2ccccc2)on1 (stereo not drawn)
compound no. | 17 | 18 | 19 | 20 | 21 | 22 | 23 | 24
Vaccinia Venus | -6% | -12% | ? | -1% | -4% | -19% | -7% | -9%
VACV mCherry inh | 4% | -13%[1.46 µM] | ? | -18% | i | -5% | i | -12%

25. N/C(=N\OC(=O)c1ccc(Cl)cc1Cl)c1ccc(Cl)cc1
26. Cc1cn(CC(=O)NCc2ccc3c(c2)OCO3)c(=O)[nH]c1=O
27. COc1cccc(NC(=O)Cn2cc(S(=O)(=O)Cc3ccccc3F)c3ccccc32)c1
28. COC(=O)c1c(N)sc(Cc2ccccc2)c1C
29. O=C(C1CC(=O)N(c2ccc(F)cc2)C1)N1CCN(c2ccc(F)cc2)CC1 (stereo not drawn)
30. Cc1ccc(CN(Cc2ccc(C)o2)C(=S)NCC(=O)O)cc1
31. O=c1/c(=C/c2ccc(O)cc2)sc2n1CCCN=2
32. COc1ccccc1N1CCN(C(=O)c2ccc3nc(-c4ccco4)c(-c4ccco4)nc3c2)CC1
compound no. | 25 | 26 | 27 | 28 | 29 | 30 | 31 | 32
Vaccinia Venus | 5% | -6% | -21% | -9% | -20% | -7% | -23% | ?
VACV mCherry inh | 5% | i | -20% | -18% | -15% | -9% | . | 11µM*

33. COc1cc(NC(=S)NC2CC(C)(C)NC(C)(C)C2)cc(OC)c1
34. CCCCN(CCCNC(=O)CN1N=C(c2ccc(C)cc2)CCC1=O)c1ccccc1
35. Cc1onc(-c2ccccc2Cl)c1C(=O)NC(=S)NCc1cccnc1
36. COc1ccc(Cl)c2sc(N(CCN(C)C)C(=O)C3=COCCO3)nc12
37. COc1cc(O)c2c(c1)OC(c1ccc(O)cc1)CC2=O (stereo not drawn)
38. CCc1nc2ccc(C(=O)Nc3ccc(OC)c(OC)c3)cn2c1N(CC)Cc1cccc(Br)c1
39. CCOC(=O)C(=O)Nc1nc(-c2ccc3c(c2)CCN3C(=O)C2CC2)c(C)s1
40. COc1ccc(CC(N)c2csc(NC(=O)CCc3ccccc3)n2)cc1 (stereo not drawn)
compound no. | 33 | 34 | 35 | 36 | 37 | 38 | 39 | 40
Vaccinia Venus | -23% | -13% | -13% | -13% | -4% | -13% | -14% | -18%
VACV mCherry inh | -24% | -15% | -2% | -23% | -3% | 9% | -14% | -12%

41. COC(=O)c1ccc(C2c3c(-c4ccc(Br)cc4)n[nH]c3C(=O)N2c2ccc(Cl)cc2)cc1 (stereo not drawn)
42. CCOC(=O)C1=C(C)N(C)C(C)=C(C(=O)OCC)C1c1ccccn1
43. C[C@H](C(=O)CC(=O)OC(C)(C)C)[C@H](O)c1ccc(C(F)(F)F)cc1
44. CCN(CC)CCNC(=O)c1cc2c(-c3cccc(OC)c3)nn(C)c2s1
45. COc1ccccc1C(=O)Nc1nnc(S(=O)(=O)N2CCN(c3ccc(F)cc3)CC2)s1
46. CCn1c(Cc2c(C)[nH]c3ccccc23)nnc1SCC(=O)NCc1ccccc1
47. CC(C)c1ccc(NC(=O)Cn2nnc(C(=O)NCc3cccs3)c2N)cc1
48. CC1CN(S(=O)(=O)c2ccc(C(=O)Nc3nnc(-c4ccccn4)o3)cc2)CC(C)O1 (stereo not drawn)
compound no. | 41 | 42 | 43 | 44 | 45 | 46 | 47 | 48
Vaccinia Venus | ? | -23% | -13% | -17%&-15% | -5%&-25% | -13% | 2% | -7%
VACV mCherry inh | ? | -10% | i | -22%&-5% | -11%&-17% | -23% | -4% | -1%

49. CC1CC(C)CN(S(=O)(=O)c2cc3c(cc2Cl)NC(=O)CO3)C1 (stereo not drawn)
50. O=C(NC1CCCC1)C1CCN(C(=O)c2ccccc2Cl)CC1
51. CC1(Cc2cccc(C(F)(F)F)c2)C(=O)Nc2c(Cl)cccc21 (stereo not drawn)
52. COc1cc(/C=N/Nc2cc(C)nc(NS(=O)(=O)c3ccccc3)n2)ccc1O
53. O=C(Nc1ccc(Cc2ccncc2)cc1)c1ccc(N2CCOCC2)c([N+](=O)[O-])c1
54. Cn1c(=O)c2[nH]c(C=Cc3ccc4c(c3)OCO4)nc2n(C)c1=O
55. COC(=O)CSc1nsc(SCC(=O)OC)c1C#N
56. COC(=O)Cc1c(C)c2ccc(OCC(=O)N(C)C3CCS(=O)(=O)C3)cc2oc1=O (stereo not drawn)
compound no. | 49 | 50 | 51 | 52 | 53 | 54 | 55 | 56
Vaccinia Venus | 3% | -13% | -5% | -6% | -10% | -5% | -8% | -12%
VACV mCherry inh | -2% | 22% | i | -9% | i | -16% | i | -13%

57. CCc1cc2c(=O)n(CC)c(SC(C)C(=O)Nc3c(C)n(C)n(-c4ccccc4)c3=O)nc2s1 (stereo not drawn)
58. Cc1c(C(=O)Nc2cccc3cccnc23)oc2ccccc12
59. Cc1c(CCC(=O)O)c(=O)oc2cc3oc4c(c3cc12)CCCC4
60. CCN(C(=O)COC(=O)c1ccc2c(c1)OCO2)c1ccccc1
61. Cc1c(NC(=O)COC(=O)C2(c3ccc(F)cc3)CCCC2)c(=O)n(-c2ccccc2)n1C
62. Cc1ccc(S(=O)(=O)NCC(=O)OC(C)C(=O)c2ccccc2)cc1 (stereo not drawn)
63. CCN(CC(=O)Nc1cc(Cl)ccc1C)C(=O)CN1C(=O)NC2(CCCC2)C1=O
64. COc1cccc2c(=O)n(CC(=O)Nc3ccccc3)ccc12
compound no. | 57 | 58 | 59 | 60 | 61 | 62 | 63 | 64
Vaccinia Venus | -16% | -9% | -2% | -11% | 1% | -4% | -3% | -18%
VACV mCherry inh | . | -17% | i | -16% | 5% | -19% | -8% | i

65. CCCN1C(=O)c2ccc(C(=O)Nc3cc(C)ccc3O)cc2C1=O
66. COc1ccccc1CCNC(=O)C(=O)NCC1OCCCN1S(=O)(=O)c1ccc(F)cc1C (stereo not drawn)
67. O=C(NCCCO)c1ccc2nc(-c3ccco3)c(-c3ccco3)nc2c1
68. C/C(CCC(C)C)=N\NC(=S)Nc1cc(S(=O)(=O)N2CCOCC2)ccc1N1CCOCC1
69. S=c1[nH]nc(-c2ccccn2)n1/N=C/c1ccc(Cl)cc1
70. CC(C)NS(=O)(=O)c1ccc(OCC(=O)N2CCN(C)CC2)cc1
71. CC(C)C[C@H]1CN([C@@H](Cc2ccccc2)CN2CCCC2CN2C(=S)NC[C@@H]2Cc2ccccc2)C(=S)N1CC1CCCCC1 (stereo partly drawn)
72. Cc1noc(C(=O)N2CCN(c3ccccc3)CC2)c1Cl
compound no. | 65 | 66 | 67 | 68 | 69 | 70 | 71 | 72
Vaccinia Venus | -12% | 16% | -9%&-24% | -9% | -6% | -9% | -17% | -5%
VACV mCherry inh | 0% | -10% | 0% | -11% | -13% | -6% | -17% | i

73. Cc1ccccc1NC(=O)COC(=O)[C@@H]1CCCN1C(=O)c1cccs1
74. O=C(COC(=O)C1CC1)Nc1cccc(Cl)c1
75. NN=C(NN=Cc1ccccc1)c1ccccc1
76. Cc1ccc2cc(CCNC(=O)C(=O)c3c[nH]c4ccccc34)c(=O)[nH]c2c1
77. Cc1ccc(OCC(=O)N2CCCc3ccccc32)cc1
78. CCCCn1c(Oc2ccc(C(=O)OC)cc2)nc2c1c(=O)n(C)c(=O)n2C
79. Cc1cc(C)n2nc(CNS(=O)(=O)c3ccc(CC(C)C)cc3)nc2n1
80. COc1ccc(S(=O)(=O)n2nc(OC(=O)C3CCCCC3)cc2N)cc1
compound no. | 73 | 74 | 75 | 76 | 77 | 78 | 79 | 80
Vaccinia Venus | -7% | 5% | -10% | -6% | -8% | -2% | -1% | -28%
VACV mCherry inh | -10% | -13% | i | i | . | -3% | 2% | -10%

81. CCCCOc1ccc(C(=O)N/C(=C/c2cccc([N+](=O)[O-])c2)C(=O)O)cc1
82. O=S(=O)(NCc1ccccn1)C(F)(F)F
83. Cc1nn(-c2ccccc2)c(Cl)c1C(=O)NC1CCCCC1
84. CC(C)CC(c1nnnn1CC1CCCO1)N1CCN(C2CCCC2)CC1 (stereo not drawn)
85. Cc1sc(=NC(=O)c2ccco2)n(C)c1-c1ccc(Cl)cc1
86. COc1ccc(S(=O)(=O)/N=C2\C=C(NS(=O)(=O)c3ccccc3)C(=O)c3ccccc32)cc1
87. O=C(CCC1CCCN(C(=O)c2cc(F)ccc2F)C1)N1CCN(c2ccccn2)CC1 (stereo not drawn)
compound no. | 81 | 82 | 83 | 84 | 85 | 86 | 87
Vaccinia Venus | -7% | -6% | -22% | -24% | -9% | 59%[activator] | -20%
VACV mCherry inh | -18% | -20% | -16% | . | -9% | ? | ?
